Compound activity: PubChem BioAssay, National Center for Advancing Translational Sciences (NCATS)
VDR inhibitor: Inhibitors of the vitamin D receptor (VDR): qHTS; Vitamin D3 receptor (Homo sapiens), P11473; VDR-SRC2-3 peptide fluorescence polarization, 2 h; Potency, µM, for the others: max response, negative = inhibition, hits mostly inhibitors; hit rate 0.93% among 400,000; active = well fitted inhibition curve with a large enough effect; inconclusive = small, poorly fitted or top-dose-only effect, or another doubt; inactive = no such curve, though single readings can be large or run the other way; also: series mostly up to about 120 µM
Target sequence (P11473 whole entry, looked up): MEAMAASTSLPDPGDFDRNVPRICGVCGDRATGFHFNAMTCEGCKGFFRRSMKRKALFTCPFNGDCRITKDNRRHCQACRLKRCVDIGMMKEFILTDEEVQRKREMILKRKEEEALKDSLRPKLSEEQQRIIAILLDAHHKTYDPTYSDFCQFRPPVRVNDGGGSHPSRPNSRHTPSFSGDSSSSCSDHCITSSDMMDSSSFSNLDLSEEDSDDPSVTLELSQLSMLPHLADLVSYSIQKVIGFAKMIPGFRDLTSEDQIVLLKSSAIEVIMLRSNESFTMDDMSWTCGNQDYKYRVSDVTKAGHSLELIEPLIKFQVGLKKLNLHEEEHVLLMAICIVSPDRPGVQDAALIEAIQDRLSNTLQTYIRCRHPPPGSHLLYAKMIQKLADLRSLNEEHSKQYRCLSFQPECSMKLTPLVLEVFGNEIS
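VDR–SRC2-3 interaction, FP format. Cmpds 23 nl via pintool, brief spin, 2 h ambient incubation.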
* hit, by the source's call; u = inconclusive; & = joins results of further samples; [ ] = dose if it differs, or a comment. % is scaled to controls: 0 for no effect and ±100 for the full control effect; potency is read from the fitted curve at half-maximal effect. These rows are one share of the data. The share of hits here may be higher or lower than overall.

SMILES	VDR inhibitor
Cc1ccc(-c2ccc(=O)n(Cc3cc(C)ccc3C)n2)cc1	-11%&4%
CCCCC(=O)Nc1ccc(C(=O)Nc2ccc(S(=O)(=O)Nc3ccc(C)cc3)cc2)cc1	-7%
CCOC(=O)c1ccccc1NC(=O)C1CCCO1 (centres undefined)	-8%
CCN1CCN(CCC(=O)Nc2ccccc2)CC1	39%[activator]
CCOC(=O)C1(Cc2cccc(F)c2)CCN(C2CCOCC2)CC1	-6%
O=C(COC(=O)c1ccccc1SCC(=O)N1CCCC1)Nc1ccc(OC(F)F)cc1	-26%
CCOC(=O)c1c(Nc2ccc(F)cc2)nnc(-c2ccccc2)c1-c1ccccc1	-23%
COc1cc(NC(=S)NC(=O)c2ccco2)ccc1NC(=O)C(C)C	-7%
COCC(C)NS(=O)(=O)c1ccc(N2CCCCS2(=O)=O)cc1 (centres undefined)	-4%
Cc1ccc(Cl)cc1Nc1nn2c(=O)c3ccc(C(=O)NC4CCCCC4)cc3nc2s1	-9%
O=C(NCC1CCCO1)c1cccc(S(=O)(=O)N2CCOCC2)c1 (centres undefined)	-8%
O=C(NCc1ccccc1)[C@]1(C(F)(F)F)C[C@H](CCCO)CCCO1	-9%
CN(C)C(=N)c1n[nH]nc1SCc1ccc(Cl)c(Cl)c1	-1%
Cc1cccc(/C=N/NC(=O)c2cccc(Cl)c2)n1	1%
Cc1ccc(S(=O)(=O)C(C#N)c2nc3ccccc3nc2N2CC(C)OC(C)C2)cc1C (centres undefined)	1%
CCc1cccc(NC(=O)CCc2nc(-c3cccs3)no2)c1	-20%
Cc1cc(C)n2nc(C(=O)OCC(=O)Nc3ccc4c(c3)OCCO4)nc2n1	-8%
CCOC(=O)N1CCN(C(=O)C2c3cc(OC)c(OC)cc3C(=O)N3CCc4ccccc4C23)CC1 (centres undefined)	4%
COc1ccc(S(=O)(=O)Nc2ccncc2)c(C)c1C	-4%
CCCc1cc(=O)oc2cc(OCc3ccc(C(=O)O)cc3)ccc12	-17%
COc1ccc(CCNc2cc(N3CCN(C(=O)c4ccccc4OC)CC3)ccc2[N+](=O)[O-])cc1OC	4%
COCCN1C(=O)C(=O)/C(=C(/O)c2ccc(S(=O)(=O)N3CCOCC3)cc2)C1c1cccc(OC)c1 (centres undefined)	3%
CC(C)CC(NS(=O)(=O)c1ccc2c(c1)oc(=O)n2C)C(=O)NCc1ccccc1Cl (centres undefined)	-15%
O=C(O)c1cnn2c(C(F)F)cc(C(F)F)nc12	-3%
COc1cc(C2=NOC(C(=O)N3CCN(c4ccc(F)cc4)CC3)C2)cc(OC)c1OC (centres undefined)	-6%

Rewritten as labelled records: entries from further up
CCCc1cc(=O)oc2cc(OCc3ccc(C(=O)O)cc3)ccc12
  VDR inhibitor: -17%
COc1ccc(CCNc2cc(N3CCN(C(=O)c4ccccc4OC)CC3)ccc2[N+](=O)[O-])cc1OC
  VDR inhibitor: 4%
COCCN1C(=O)C(=O)/C(=C(/O)c2ccc(S(=O)(=O)N3CCOCC3)cc2)C1c1cccc(OC)c1 (centres undefined)
  VDR inhibitor: 3%

(list continues)
SMILES	VDR inhibitor
CCc1ccccc1N(C(=O)CNC(=O)c1ccco1)C(C(=O)NC1CCCC1)c1cccnc1 (centres undefined)	13%
CC(=C\c1ccccc1)/C=C1/SC(=S)N(C(C(=O)O)C(C)C)C1=O (centres undefined)	u
Cc1ccc(-c2nnn(CC(=O)N(c3ccc4c(c3)OCCO4)C(C(=O)NCC3CCCO3)c3ccc(F)cc3)n2)o1 (centres undefined)	-1%
c1ccc(-c2noc(C3CCCCC3)n2)nc1	-10%
O=C(CSc1nc2c(c(=O)[nH]1)CCC2)Nc1cccc(O)c1	10%
CN(CC(=O)Nc1ccccc1Cl)C(=O)COC(=O)c1ccc(Cl)nc1	-17%
Cc1ccc(S(=O)(=O)N2CCOCC2)cc1NC(=O)COC(=O)COc1cccc2c1OC(C)(C)C2	8%
CN1CCN(c2nc3nonc3nc2N2CCN(C)CC2)CC1	15%
COc1cccc(C2CC(c3ccccc3Cl)n3ncnc3N2)c1 (centres undefined)	23%
O=C(Nc1cccc(OCC(=O)N2CCOCC2)c1)c1ccc(C(F)(F)F)cc1	-19%
Cc1[nH]n(-c2ccccc2)c(=O)c1/C=N/c1nn[nH]n1	-18%
CCN(CC)Cc1ccc(NC(=O)c2sc3cc(Cl)ccc3c2Cl)cc1	-10%
Cn1cc(/C=C/c2nc3ccccc3c(=O)n2-c2cccc([N+](=O)[O-])c2)c2ccccc21	15%
COc1ccc(OC(=O)c2nc(SCc3ccc(C)cc3)ncc2Cl)cc1	8%
COc1cccc(-c2noc(CCC(=O)Nc3cccnc3)n2)c1	3%
COC(=O)NC(=S)Nc1ccc(Oc2ccc(Cl)cc2)c(Cl)c1	5%
CCc1ccc(N(CC(=O)NCc2ccc3c(c2)OCO3)C(=O)c2csnn2)cc1	2%
CC(=O)Nc1ccc(S(=O)(=O)Nc2nccc(C)n2)cc1	-18%
Cc1cccc(OCC(=O)Nc2ccncc2)c1C	-1%
COc1ccc(S(=O)(=O)N2CCCCCC2)cc1C(=O)Nc1ccc(C(=O)N(C)C)cc1	-20%
Cn1c(=O)[nH]c(=O)c2c1nc(NC1CCCC1)n2Cc1ccccc1	-6%
O=C(CC1S/C(=N/N=C/c2cccs2)NC1=O)Nc1ccccc1F (centres undefined)	-9%
COc1cc(/C=N/O)ccc1OCc1ccc([N+](=O)[O-])cc1	-16%
O=C(CN(Cc1ccccc1)C(=O)CCC(=O)Nc1ccccn1)NCCc1ccccc1	-6%
CSCCC(NS(=O)(=O)c1ccccc1F)C(=O)NCC(c1ccco1)N(C)C (centres undefined)	-16%

Overlap with the part before: seven entries; new compounds follow.
SMILES	VDR inhibitor
Cc1cccc(OCC(=O)Nc2ccncc2)c1C	-1%
COc1ccc(S(=O)(=O)N2CCCCCC2)cc1C(=O)Nc1ccc(C(=O)N(C)C)cc1	-20%
Cn1c(=O)[nH]c(=O)c2c1nc(NC1CCCC1)n2Cc1ccccc1	-6%
O=C(CC1S/C(=N/N=C/c2cccs2)NC1=O)Nc1ccccc1F (centres undefined)	-9%
COc1cc(/C=N/O)ccc1OCc1ccc([N+](=O)[O-])cc1	-16%
O=C(CN(Cc1ccccc1)C(=O)CCC(=O)Nc1ccccn1)NCCc1ccccc1	-6%
CSCCC(NS(=O)(=O)c1ccccc1F)C(=O)NCC(c1ccco1)N(C)C (centres undefined)	-16%
CC1c2[nH]c3ccccc3c2C[C@H]2C(=O)N(CCCN(C)C)CC(=O)N12 (some centres undefined)	-20%
CC(Oc1cccc(Cl)c1)c1ccnc2nc(/N=C/N(C)C)nn12 (centres undefined)	32%[activator]
COc1ccc(N2CCN(C(=O)c3ccc(-n4nc(C)cc4C)cc3)CC2)cc1	9%
COc1cc(C)c(Cl)c(C)c1S(=O)(=O)NCc1ccc2c(c1)OCO2	21%
CCn1c(CNC(=O)c2cccc(C)c2)nnc1SCC(=O)N1CCOCC1	12%
Cc1cc(C)n(CCOc2ccc(Cl)cc2Cl)n1	-14%
CN(Cc1ccccc1)CC(O)COc1ccc(CNCCc2cccnc2)cc1 (centres undefined)	-9%
CCOC(=O)/C=C1\NC(=O)C(C)S1 (centres undefined)	-3%
COc1cccc(/C=N/NC(=O)CCn2c3ccccc3c3ccccc32)c1	10%
CCn1ncc(C(=O)Nc2cccc(Cl)c2)c1C	3%
COc1ccc(NC(=S)NC(=O)/C=C/c2ccccc2)cc1	-5%
COc1ccc2ccccc2c1CNC(=O)CC1C(=O)NCCN1CC(C)(C)C (centres undefined)	-11%
COCCn1c(=O)sc2ccccc2c1=O	16µM*
COc1ccc(N2CCN(C(=O)COC(=O)CNC(=O)c3ccc(C)cc3)CC2)cc1	2%
CC(=O)NCCCN(Cc1ccc(Cl)c(Cl)c1)c1ccc(Br)cn1	-23%
Cc1ccccc1NC(=S)NC(=O)c1cncc(Br)c1	-28%
CCOCCCN(C)C1CCN(C(=O)c2oc3ccccc3c2NC(=O)c2ccc([N+](=O)[O-])cc2)CC1	-8%
COc1cccc(NC(=O)CN(C)CC(=O)NCC(=O)Nc2ccc(F)cc2)c1	-2%
COc1ccc(OC)c(S(=O)(=O)N2C(C)CCCC2C)c1 (centres undefined)	-1%
Cc1cccc(NC(=O)Cn2c(=O)oc3cc(S(=O)(=O)NC4CCCC4)ccc32)c1	-7%
c1ccc(-n2nnnc2-c2cnc(-c3ccncc3)nc2-c2cccs2)cc1	18%
COc1ccc(/C=C(/NC(=O)c2ccccc2)C(=O)NC(Cc2c[nH]c3ccccc23)C(=O)O)cc1 (centres undefined)	-2%
COc1cc2cc(C(=O)N[C@@H](Cc3ccccc3)C(=O)O)n(C)c2c(OC)c1OC	-3%
Nc1nc(SCC(=O)Nc2ccc(Cl)c([N+](=O)[O-])c2)n[nH]1	-11%
CC(=O)NC1C(Oc2ccc3c(C)cc(=O)oc3c2)OC(COC(C)=O)C(OC(C)=O)C1OC(C)=O (centres undefined)	15%
SMILES	VDR inhibitor
Cc1cc2nnc(SCC(=O)N3CCCCC3)n2c(N)n1	-2%
Cc1ccc2c(c1)N(C(=O)CCC(=O)N1CCC(C(N)=O)CC1)CC(C)O2 (centres undefined)	13%
O=C(CNC(=S)N(CCCN1CCOCC1)Cc1cccs1)NC1CC1	-9%
CC(C)(C)C(=O)OC/C(N)=N/OC(=O)c1ccc(Cl)cc1	-4%
Cc1ccc(-c2cnc(-c3ccncc3)o2)cc1	6%
COC(=O)c1ccc(S(=O)(=O)N2CCN(CCO)CC2)n1C	20%
O=C(NCC1CCCO1)c1cccc(Br)c1 (centres undefined)	18%
Cc1cc(NC(=O)Cn2cnc3c(nnn3-c3ccc(C)c(Cl)c3)c2=O)no1	-13%
O=C(Cc1ccccc1)NCC1CCCO1 (centres undefined)	11%
Cc1ccc(NC(=O)c2cnc(SCC(=O)Nc3cc(C)on3)n(C)c2=O)cc1	5%
Cc1ccc(S(=O)(=O)N(C)c2ccc(OC(C)C(=O)N3CCCC3)cc2)cc1C (centres undefined)	-12%
COC(=O)C(=NNc1c(C)n(C)n(-c2ccccc2)c1=O)C(=O)OC	-7%
CC(C)S(=O)(=O)N1CCN(c2ccnc3cc(Cl)ccc23)CC1	8%
Nn1c(SCC(=O)N2CCCCC2)nnc1-c1ccncc1	-17%
CCc1ccc(C=NC23CN4CN(CN(C4)C2)C3)s1	-1%
COc1ccc(/C=C/C(=O)OCC(=O)c2c(N)n(C)c(=O)n(C)c2=O)c(OC)c1	-1%
Cc1cc(Cl)c(OCCOCCN2CCCCC2)c(Br)c1	-11%
CN(C)C(CNC(=O)c1ccc2nccnc2c1)c1ccco1 (centres undefined)	-12%
O=c1c(Cc2ccccc2)c(O)ccn1CCc1cnc[nH]1	0%
COc1cccc([C@@H]2Oc3ccc(OC)cc3C(=O)[C@H]2O)c1	-25%
O=C(O)COc1c(-c2ccccc2)oc2ccccc2c1=O	-7%
Cc1ccc(NCc2nnc(SCC(=O)Nc3cc(C)on3)n2C)cc1	-5%
C/C(=C\c1cccc(Br)c1)C(=O)c1c(C)cc(C)[nH]c1=O	11%
C#Cc1ccc([C@H]2C=C(C(=O)OCC=C)O[C@@H](OCCCCO)C2)cc1	-26%
NS(=O)(=O)c1ccc(CCNC(=O)c2nc(CS(=O)(=O)c3ccc(Cl)cc3)no2)cc1	-11%
SMILES	VDR inhibitor
CSc1nc(Oc2ccc3ccccc3c2)c2ccccc2n1	0%
O=c1cc(CN2CCN(c3ccccc3F)CC2)c2cc3c(cc2o1)CCCC3	-8%
CC1CCc2cc(F)ccc2N1C(=O)C1(C)CC1(Cl)Cl (centres undefined)	2%
COC(=O)c1cc(S(=O)(=O)NCc2ccccc2)c[nH]1	-4%
Cc1cc(C)cc(NS(=O)(=O)c2ccc3[nH]cc(C(=O)NCCc4ccccc4)c(=O)c3c2)c1	-17%
CC(C)C(=O)Nc1ccc2c(c1)C(=O)NC2=O	15%
CCOC(=O)C(CCc1ccccn1)c1ccccc1 (centres undefined)	-24%
CC(=O)c1cccc(OCc2cc(C(=O)N(C)CCC3CCOCC3)no2)c1	7%
COc1ccc(NC(=O)CN2C(=O)c3ccccc3S2(=O)=O)cc1OC	53%[activator]
CC(=O)c1ccc(N(C(=O)CNC(=O)c2cccs2)C(C(=O)NCC2CCCO2)c2ccccc2)cc1 (centres undefined)	-7%
COc1ccc(C(=O)Nc2cc(C(=O)c3ccccc3)c(C)oc2=O)cc1	32µM*
O=C(NCC(=O)N1CC(O)CC1C(=O)N1CC(O)CC1C(=O)OCc1ccccc1)OCc1ccccc1 (centres undefined)	-10%
Cc1ccc(Cn2c(CO)cnc2SCc2ccc(F)cc2)cc1	-4%
O=[N+]([O-])c1cc(-c2csc(NC(CO)c3nc4ccccc4n3CCOCCO)n2)ccc1Cl (centres undefined)	-29%
O=C1CSC(=S)N1c1ccc(O)cc1	2%
O=C(Nc1cc(C(F)(F)F)ccc1Cl)c1ccc(NC(=O)C(F)(F)F)cc1	-8%
O=C(O)c1cc(S(=O)(=O)NCCOc2ccccc2)ccc1Cl	-13%
COC(=O)c1ccccc1NC(=O)N1CCN(S(=O)(=O)c2ccc(Cl)cc2)CC1	-3%
O=C(Nc1ccc(Br)cc1F)c1ccc2nc(CCc3ccccc3)oc2c1	13%
COc1ccc(-c2cnc3n2CCCCC3)cc1	3%
CCNc1nc(Oc2ccc(OCC(=O)OC)nn2)nc(N2CCOCC2)n1	-25%
COc1ccc(C(=O)COC(=O)CCN2C(=O)C3C4CCC(C4)C3C2=O)cc1 (centres undefined)	-3%
CCOC(=O)CC(=O)CSc1nc2ccccc2c(=O)n1CCc1ccccc1	14%
COC(=O)CN1CCN(C(=O)c2ccco2)CC1	6%

2 records picked at random from the list so far, as already listed:
SMILES	VDR inhibitor
Cc1cc(C)cc(NS(=O)(=O)c2ccc3[nH]cc(C(=O)NCCc4ccccc4)c(=O)c3c2)c1	-17%
COc1ccc(-c2cnc3n2CCCCC3)cc1	3%
